# Insulin prom inh = inhibitors of insulin promoter-driven GFP, primary screen, imaging, TRM-6 cells (human fetal islet line), eGFP reporter, cell count | reporter expression induced with tamoxifen | inhibition, % at 2 µM | 130,000 tested, 0.9% active;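 active = inhibition above the mean plus 3 SD, with well images judged a real hit on visual review, cut at about 60% in these data, passing the limit was not always enough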
# PKD1 inh = inhibitors of human PKD1 kinase, biochemical, fluorescence polarization; PKD1 kinase fluorescence polarization assay; inhibition, %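 (about 10 µM by stock and volumes)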; 200,000 tested, 0.056% active; AID 797, 2007;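 active = inhibition of 50% or more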;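 note: controls were vehicle for no effect and a reference inhibitor for full effect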
# GALR2 ag = GALR2 receptor agonists, primary screen, cell-based; Galanin receptor type 2 (Homo sapiens), O43603; GALR2-expressing cells, agonist activation read-out; activation, %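 (tested at 5 µM)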; 140,000 tested, 0.48% active; AID 803, 2007;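 active = above mean plus 3 SD of all compounds, about 5% in these data, not always enough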;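 note: 0% = vehicle buffer wells and 100% = reference agonist at full effect; tested in CHO reporter cells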
# Target sequence (O43603 whole entry, looked up): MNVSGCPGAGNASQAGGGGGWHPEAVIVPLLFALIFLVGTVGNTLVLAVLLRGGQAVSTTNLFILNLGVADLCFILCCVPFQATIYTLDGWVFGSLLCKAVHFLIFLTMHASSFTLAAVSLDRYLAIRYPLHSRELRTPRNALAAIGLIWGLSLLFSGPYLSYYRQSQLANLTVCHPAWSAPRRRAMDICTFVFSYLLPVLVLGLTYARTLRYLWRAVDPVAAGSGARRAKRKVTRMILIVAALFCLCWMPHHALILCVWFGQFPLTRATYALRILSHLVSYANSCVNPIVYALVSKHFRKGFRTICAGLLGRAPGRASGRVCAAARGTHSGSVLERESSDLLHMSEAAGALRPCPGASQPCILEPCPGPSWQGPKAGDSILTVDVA
# RGS16-Gao = modulators of RGS16 binding to Galphao, primary screen, biochemical, human proteins, multiplexed bead flow cytometry; Regulator of G-protein signaling 16 (Homo sapiens) + Guanine nucleotide-binding protein …; bead-based flow cytometry RGS16-Galphao binding, fluorescence; actives lie on both sides; binding response (% of control), % at 10 µM; 220,000 tested, 0.38% active; AID 1441, 2008;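 active = below 25% or above 175%, edge rows of some plates excepted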;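 note: Galphao activated by GDP with aluminum fluoride before binding; 100% = wells without compound and 0% = beads without RGS; some results beyond the cut were filed as inactive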
# Target sequence (O15492 whole entry, looked up): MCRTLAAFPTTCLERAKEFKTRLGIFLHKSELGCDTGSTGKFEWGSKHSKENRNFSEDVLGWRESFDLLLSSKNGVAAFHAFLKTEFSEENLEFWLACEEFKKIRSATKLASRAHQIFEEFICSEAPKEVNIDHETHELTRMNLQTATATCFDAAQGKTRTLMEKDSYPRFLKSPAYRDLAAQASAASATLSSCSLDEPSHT
# Target sequence (P09471 whole entry, looked up): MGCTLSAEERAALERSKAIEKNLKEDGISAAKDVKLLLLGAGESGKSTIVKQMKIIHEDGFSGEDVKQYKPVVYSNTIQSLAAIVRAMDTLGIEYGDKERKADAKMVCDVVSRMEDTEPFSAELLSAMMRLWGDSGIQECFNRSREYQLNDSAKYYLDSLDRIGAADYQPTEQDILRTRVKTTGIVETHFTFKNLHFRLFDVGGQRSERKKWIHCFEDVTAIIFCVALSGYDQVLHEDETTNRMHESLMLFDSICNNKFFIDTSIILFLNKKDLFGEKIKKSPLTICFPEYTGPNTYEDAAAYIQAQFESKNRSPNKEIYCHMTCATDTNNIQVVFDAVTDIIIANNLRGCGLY
# HSV replic up = enhancers of HSV replication in host cells, fold increase, host cell viability | maximum fold increase | HSV replication augmentation in cells | 220,000 tested, 0.005% active;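 active = peak rise of 1.5-fold or more in the series; tested in PC3 cells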;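 note: first round at 10 µM; read as green reporter fluorescence; hits show the peak of a series up to 25 µM; 1 = signal of infected wells without compound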
# Insulin prom inh cell count = second read-out of Insulin prom inh, no call of its own (marks repeat the call); normalized cell count, %; measured here: cell count, toxicity; reference of the scale not given here;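 cells exposed to compound for 48 h; stained nuclei by imaging scaled within each plate; lower means fewer cells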
# HSV replic up primary fold = recorded beside HSV replic up, whose call it bears; fold increase; compound at 10 µM; measured here: primary screen fold increase 10 uM; tested in PC3 cells;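 GFP signal in the first replicate; 1 = infected wells without compound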
# Starred values were filed as active, the others as inactive; i = inactive; . = no result given.
SMILES,Insulin prom inh,Insulin prom inh cell count,PKD1 inh,GALR2 ag,RGS16-Gao,HSV replic up,HSV replic up primary fold
CCN1CCCC1CNC(=O)CSc1cc(=O)n(C)c2cc(Cl)ccc12 (stereo not drawn),.,.,-3,-3.1,163,i,0.97
CCC(=O)Nc1sc(Cc2ccccc2)c(C)c1C(N)=O,67,130,-1,.,112,i,0.99
CCOC(=O)C1CCN(C(=O)/C=C/c2cc(OC)c(OC)c(OC)c2)CC1,8,140,-13,-0.6,106,i,0.89
O=[N+]([O-])c1ccc(N2CCN(C(=S)Nc3cccc(F)c3)CC2)cc1,47,86,1,.,92,i,1.1
CC(=O)Nc1ccc(S(=O)(=O)N2CCC(NC(=O)C(Cc3cccn3C)NC(C)=O)CC2)cc1 (stereo not drawn),.,.,4,-1.9,98,i,0.86
O=C(CCn1c2c(c3ccccc31)CCCC2)NNC(=O)c1ccc(Cl)c([N+](=O)[O-])c1,.,.,-3,-1.2,145,i,0.99
CSc1ccc(C(=O)C2CCCN(C(=O)Cc3nonc3C)C2)cc1 (stereo not drawn),.,.,1,.,101,i,1
Cn1c(SCc2nc(-c3ccc(Br)cc3)no2)nnc1-c1ccco1,-4,103,-5,-1.6,98,i,0.55
CCn1nnnc1SCC(=O)Nc1ccc(OCc2ccccc2)cc1,25,133,0,-1.1,102,i,0.82
O=C(O)c1cccc(-n2cccc2/C=C/[N+](=O)[O-])c1,.,.,.,.,97,i,1.1
CCOc1cc(/C=N\NC(=O)c2ccc(NC(=O)C(C)(C)C)cc2)ccc1OC(=O)c1cccc(C)c1,.,.,-4,-0.6,100,i,0.83
COc1ccc(CC(=O)NCc2n[nH]c(=S)n2-c2ccccc2OC)cc1,40,118,-3,.,104,i,1
Oc1ccccc1C1=Nc2nc3ccccc3n2C(c2ccccc2)C1 (stereo not drawn),19,118,-8,-1.7,99,i,1
CCc1ccc(NC(=O)CCn2c(=O)oc3ccccc32)cc1,.,.,-6,-2.7,101,i,0.81
CC1(C)Cc2c(sc3nnn(Cc4ccccc4)c(=O)c23)CO1,.,.,-2,-0.6,111,i,0.89
O=C(CSCc1c(F)cccc1Cl)NCC1CCCO1 (stereo not drawn),-51,164,-10,-1.6,107,i,1.1
Cc1cccc(NNC(N)=S)c1C,.,.,-4,.,98,i,0.99
O=C(O)COc1ccc(Cl)cc1CO,25,90,-5,-1.5,100,i,1
CCC(=O)Nc1cccc(NC(=O)CSc2nnc(C(C)C)n2CC)c1,.,.,-1,-0.8,105,i,1
O=C(c1cc2ccccn2n1)N1CCCC1,.,.,-14,0.0,98,.,.
CC(C)(C)C(=O)Nc1cccc(-c2ncon2)c1,.,.,.,.,101,i,1
Cc1ccc(-n2nc(C)c(C(C)(O)C(F)(F)F)c2N)cc1 (stereo not drawn),.,.,-6,-1.2,98,i,1.1
CCN(CC)C(=O)Cc1ccccc1,.,.,.,.,98,i,0.86
CCOC(=O)CSc1nc2ccccc2n1C(=O)OCC,.,.,9,-2.0,99,i,1

# Entries from the list above with a thiophene ring, fused or not, in the order listed:
SMILES,Insulin prom inh,Insulin prom inh cell count,PKD1 inh,GALR2 ag,RGS16-Gao,HSV replic up,HSV replic up primary fold
CCC(=O)Nc1sc(Cc2ccccc2)c(C)c1C(N)=O,67,130,-1,.,112,i,0.99
CC1(C)Cc2c(sc3nnn(Cc4ccccc4)c(=O)c23)CO1,.,.,-2,-0.6,111,i,0.89

# Carrying on.
SMILES,Insulin prom inh,Insulin prom inh cell count,PKD1 inh,GALR2 ag,RGS16-Gao,HSV replic up,HSV replic up primary fold
Cc1ccc(-c2noc(CNCCCN(C)C)n2)cc1,-40,125,4,1.1,100,i,0.98
CSc1nc2ccccc2n1CC(=O)Nc1ccccc1,35,90,-7,-2.1,118,i,0.91
S=c1[nH]nc(-c2ccccn2)n1/N=C/c1ccco1,.,.,.,.,96,i,1.3
N/C(=N\OC(=O)CCc1ccccc1)c1ccccc1Cl,10,134,2,.,98,i,0.93
CCOP(=O)(OCC)C(Nc1cccc(C)c1)c1ccc(F)cc1 (stereo not drawn),-6,90,-6,-1.1,97,i,1
COc1ccc(-c2n[nH]c(=S)n2N)c(OC)c1,.,.,-6,.,95,i,0.86
Cc1noc(/C=C/N(C)C)c1S(=O)(=O)N1CCCC(C(=O)NCCC2=CCCCC2)C1 (stereo not drawn),.,.,-4,-2.8,.,.,.
CCc1ccc(N=CC2=C(O)CC(c3ccco3)CC2=O)cc1 (stereo not drawn),-8,140,3,-1.1,103,i,0.96
Cc1cc(NC(CC(C)C)C(=O)O)nc(Cc2ccccc2)n1 (stereo not drawn),.,.,-8,-1.0,109,i,1.1
COC(=O)N/N=C/c1ccc(OC(=O)/C=C/c2ccco2)cc1,.,.,.,.,95,i,0.89
O=C1c2ccncc2C(=O)N1CO,-10,110,-12,-1.5,-20*,i,0.96
O=P1(O)C=C(c2ccccc2)NC(c2ccccc2)=C1,-30,70,-11,-2.1,98,i,0.82

# Six entries from above, sorted by their value in PKD1 inh, highest first.
molecule	PKD1 inh
Cc1ccc(-c2noc(CNCCCN(C)C)n2)cc1	4
CCc1ccc(N=CC2=C(O)CC(c3ccco3)CC2=O)cc1 (stereo not drawn)	3
Cc1noc(/C=C/N(C)C)c1S(=O)(=O)N1CCCC(C(=O)NCCC2=CCCCC2)C1 (stereo not drawn)	-4
COc1ccc(-c2n[nH]c(=S)n2N)c(OC)c1	-6
O=P1(O)C=C(c2ccccc2)NC(c2ccccc2)=C1	-11
O=C1c2ccncc2C(=O)N1CO	-12

# Carrying on.
SMILES,Insulin prom inh,Insulin prom inh cell count,PKD1 inh,GALR2 ag,RGS16-Gao,HSV replic up,HSV replic up primary fold
O=C(O)CCCC(=O)Nc1cccc(C(F)(F)F)c1,.,.,-7,-1.7,-907,i,0.99
Cc1ccc(C)c(N2CCN(C(c3ccc(N(C)C)cc3)c3nnnn3C(C)(C)C)CC2)c1 (stereo not drawn),-167,115,-2,-0.5,100,i,0.93
CN1CCN(c2ccccc2NC(=O)c2cc(Br)ccc2Cl)CC1,-371,64,4,-2.8,100,i,0.86
CCCCC(CC)C1OCC(CN2CCCC2)O1 (stereo not drawn),-28,150,-6,-3.4,104,i,0.93
CCCCn1c(=O)c(CCC(=O)OCC(=O)Nc2ccc(C)c(Cl)c2)nc2ccccc21,.,.,-7,-0.2,104,i,0.95
CC(C)c1ccc(Nc2ncccc2C#N)cc1,.,.,9,0.0,94,i,0.9
Cn1c(=O)c2c(nc(CN3CCC(C(N)=O)CC3)n2CCc2ccccc2)n(C)c1=O,.,.,-6,-1.5,103,i,0.82
CCc1cccc(NC(=O)CCC(=O)O)c1,-15,105,2,-0.4,74,i,1.1
CCCOc1cc(C)c(S(=O)(=O)n2nnc3ccccc32)cc1C,27,40,1,-1.0,101,i,0.99
O=C(O)CCCC(=O)Nc1cc([N+](=O)[O-])ccc1O,.,.,2,.,97,i,0.99
Cc1ccc(C(=O)N/N=C/c2ccc3c(c2)OCO3)o1,-17,95,-5,-0.5,112,i,0.89
COc1cccc(/C=N/NC(=O)c2ccc(=O)[nH]n2)c1O,.,.,.,.,87,i,1.4
Cc1onc(-c2ccc(Cl)cc2)c1-c1ccnn1S(=O)(=O)c1ccc(Cl)cc1,.,.,.,.,102,i,1
c1ccc(-c2onc3c2CCCC3)cc1,-13,105,-1,-1.6,97,i,0.97
Cc1nc2nc(SCC(=O)c3cccc([N+](=O)[O-])c3)[nH]c2cc1Br,.,.,-5,-1.3,105,i,1.1
CCC1CCCCN1CCCNC(=O)COc1cc(=O)n(C)c2ccccc12 (stereo not drawn),.,.,5,-4.6,104,i,0.75
CC1(C)SC2c3ccccc3C(=O)N2[C@@H]1C(=O)NCc1ccco1 (stereo partly drawn),.,.,2,-0.3,102,i,0.84
COC(=O)c1ccccc1NC(=O)C1CCCCC1C(=O)O (stereo not drawn),-13,97,-7,-0.5,104,i,0.83
N#CC(C(=O)NCc1ccco1)c1nc2ccccc2nc1N1CCOCC1 (stereo not drawn),.,.,7,-1.7,98,i,1.1
CCC(=O)OCCn1c(=O)c2cc3c(=O)n(CCOC(=O)CC)c(=O)c3cc2c1=O,10,51,-7,0.7,102,i,0.69
CCCC(c1nnnn1CS(=O)(=O)c1ccc(C)cc1)N1CCN(CC)CC1 (stereo not drawn),.,.,-5,.,54,i,1
Cc1ccc2nc(SCc3cn4cccnc4n3)[nH]c2c1,.,.,-6,-1.2,104,i,1.1
Cn1c(=O)[nH]c(=O)c2c1nc(N1CCN(c3ccccc3)CC1)n2CCSc1ncccn1,.,.,-6,-1.1,110,i,0.97
CCNC(=S)NNC(=O)c1nn(C)c(C)c1Cl,10,141,-6,.,105,i,1.1
Cc1ccc(SCCC(=O)Nc2ccccc2Br)cc1,.,.,-2,.,100,i,0.76
O=C(O)COc1ccccc1/C=N/NC(=O)c1cc2ccccc2cc1O,.,.,.,.,93,i,0.94
CN(CC(=O)Nc1cccc(F)c1)CC(=O)Nc1cccc([N+](=O)[O-])c1,-44,85,2,.,91,i,0.99
COc1cc(CCCN2C(=S)NC[C@@H]2CC2CCCCC2)cc(OC)c1OC,.,.,.,.,103,i,0.91
CC(=O)OC[C@H]1O[C@@H](O/N=C/C[C@@H]2C=C[C@H](OC(C)=O)[C@@H](COC(C)=O)O2)[C@H](OC(C)=O)[C@@H](OC(C)=O)[C@@H]1OC(C)=O,19,74,-7,-1.2,61,.,.
O=C(Nc1ccc(O)cc1)c1ccc2c(c1)C(=O)N(Cc1ccco1)C2=O,49,52,0,-1.2,61,i,1
O=C(NNC(=S)Nc1cccc2ccccc12)c1cccc(Br)c1,.,.,2,-1.7,78,i,0.79
CC(=O)Nc1ccc(/C=N/NC(=O)c2cc3cc(C)ccc3nc2C)cc1,-29,87,-2,-1.6,102,i,0.91
COc1ccccc1OCc1nc2ccccc2[nH]1,-19,126,-10,-1.1,111,i,0.83
O=C(c1cccs1)N1CCC(N2CCN(c3ccccc3)CC2)CC1,.,.,-11,-1.2,110,i,0.79
Cn1c(=O)c2cc(S(=O)(=O)NC(C(=O)NCc3ccccn3)c3ccccc3)ccc2n(C)c1=O (stereo not drawn),.,.,6,-2.0,104,i,0.79
CC(C)(C)[C@@H]1C=C(C(=O)N2CCN(Cc3ccccc3)CC2)O[C@H](OCCCCO)C1,.,.,-3,.,101,i,0.93
O=C(COC(=O)C1=COCCO1)Nc1ccccc1OC(F)F,.,.,14,.,104,i,0.9
COCCNc1ccc(S(=O)(=O)N2CCCC2)cc1[N+](=O)[O-],56,107,6,.,102,i,1
CN1CCN(C(=O)c2ccc(COc3ccc(Cl)cc3Cl)cc2)CC1,-30,96,-1,-1.6,92,i,0.95
CCOC(=O)c1cc2sccc2n1CC(=O)OC,.,.,2,0.3,105,i,0.86
COc1ccc(C2C(C(C)=O)=C(C)Nc3ncnn32)cc1OC (stereo not drawn),31,112,-6,-2.6,108,i,0.81
N#Cc1c(-c2c(Cl)cccc2Cl)noc1/C=C/Nc1ccc(C(=O)O)cc1,-133,86,3,.,111,i,1.2
CC(C)NC(=S)N/N=C/c1ccc(N2CCOCC2)cc1,.,.,-4,-1.2,102,i,0.68
N#Cc1ccc(CSc2nnc(NC(=O)CN3C(=O)C4CC=CCC4C3=O)s2)cc1 (stereo not drawn),.,.,0,1.0,100,i,0.89
O=C(Nc1ccccn1)N1CCOCC1,11,32,-9,-2.8,61,i,0.75
CCCNC(=O)NCCC12CC3CC(CC(C3)C1)C2,47,65,0,.,100,i,0.96
Cc1ccc2nc(NC(=O)CS(=O)(=O)Cc3ccccc3)sc2c1,.,.,.,.,101,i,0.96
CCOC(=O)c1cc([N+](=O)[O-])sc1N,.,.,4,.,104,i,0.94
CCCSc1oc(-c2ccco2)nc1S(=O)(=O)c1ccccc1,31,130,1,-2.1,97,i,0.84
COC(=O)c1nnn(CC(=O)NC(=O)Nc2c(C)cccc2C)c1C(=O)OC,-59,191,3,-0.9,103,i,0.95
CC(=O)c1cnc(Nc2nc(C)c3ccccc3n2)nc1C,26,57,-9,-1.2,95,.,.
COc1ccc(-c2cc(OC(=O)c3ccc(F)cc3)c3c(C)oc(C)c3c(=O)c2)cc1,15,93,-8,-1.7,97,i,1.2
O=C1CC(c2ccccc2)CN1C(=O)c1cncc(Br)c1 (stereo not drawn),.,.,-5,.,100,i,0.96
O=C1CN(c2ccccc2Cl)C(=O)CN1c1ccccc1Cl,-47,92,-1,-0.8,106,i,0.88
